UCH37 DUB inh = human UCH37 deubiquitinating enzyme inhibition. purified proteasome/UCH37, Ub-AMC cleavage fluorescence. actives 0.33% (n = 330,000). inhibition, % (no concentration beside the values). AID 588478;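 active = mean of two replicates above 20%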;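 also: 0% = compound-free wells with enzyme and 100% = wells lacking proteasome; stock transfer was 100 nL into about 20 µL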
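Test system – human UCH37 enzyme supplied as purified proteasome complex · Incubation – 30 min preincubation with enzyme, 25 min cleavage at room temperature · Detection – AMC fluorescence from Ub-AMC cleavage, excitation 355 nm, emission 460 nm · Benchmarks – no-proteasome wells (full inhibition) and compound-free wells (no inhibition)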
B2AR ag = activates human beta-2 adrenergic receptor causing internalization; AID 504454; actives 0.43% (n = 340,000); Am2.2-beta2AR cells, FAP receptor internalization, flow cytometry; reference of the scale not given here; response, % (concentration not given with the values);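 active = response above a set limit, near 3 SD of response in nonfluorescent compounds, cut at about 42% in these data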;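 also: stock transfer was 100 nL into about 11 µL; a reference agonist was the positive control; negative values mostly stem from fluorescent compounds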
Target sequence (P07550 whole entry, looked up): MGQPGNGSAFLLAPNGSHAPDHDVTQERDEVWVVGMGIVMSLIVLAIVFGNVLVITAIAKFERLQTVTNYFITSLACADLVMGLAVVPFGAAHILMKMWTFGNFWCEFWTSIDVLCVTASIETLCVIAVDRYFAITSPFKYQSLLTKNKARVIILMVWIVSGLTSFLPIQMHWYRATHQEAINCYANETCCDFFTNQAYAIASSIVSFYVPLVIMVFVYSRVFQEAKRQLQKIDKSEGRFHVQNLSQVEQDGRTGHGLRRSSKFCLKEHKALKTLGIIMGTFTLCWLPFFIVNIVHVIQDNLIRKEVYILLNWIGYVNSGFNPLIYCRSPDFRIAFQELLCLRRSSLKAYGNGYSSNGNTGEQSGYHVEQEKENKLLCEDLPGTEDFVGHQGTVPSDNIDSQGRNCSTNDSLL
ALR inh = inhibitors of human sulfhydryl oxidase ALR. P55789. purified ALR, DTT oxidation, H2O2 HRP-luminol luminescence. inhibition, % (concentration not given with the values). actives 3.8% (n = 290,000). AID 485317;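 active = mean and each replicate at 75% or more; inconclusive = only one of the two met; inactive = neither met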;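 also: stock transfer was 7.5 nL into about 7.5 µL; 0% = neutral wells and 100% = wells with inactivated enzyme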
Target sequence (P55789 whole entry, looked up): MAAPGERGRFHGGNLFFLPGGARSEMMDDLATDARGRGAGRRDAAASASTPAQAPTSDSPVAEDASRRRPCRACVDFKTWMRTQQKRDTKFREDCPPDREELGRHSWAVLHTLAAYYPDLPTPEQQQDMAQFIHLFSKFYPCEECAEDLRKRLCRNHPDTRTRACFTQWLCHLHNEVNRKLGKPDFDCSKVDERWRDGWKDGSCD
HNF4A DNA FP = change in binding of human HNF4 alpha to DNA. P41235. HNF4a-FITC DNA binding, fluorescence polarization, 1 h. activity change, % at 10 µM. actives 0.3% (n = 360,000). AID 1224865; in the data active = activity change above about 30%, passing the limit was not always enough;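 also: controls were the assay level and a saturating level of protein; the project sought stronger binding though the title names inhibitors; some compounds called inactive have numbers as strong as hits; positive values seem to mean higher polarization but the record does not say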
Target sequence (P41235 whole entry, looked up): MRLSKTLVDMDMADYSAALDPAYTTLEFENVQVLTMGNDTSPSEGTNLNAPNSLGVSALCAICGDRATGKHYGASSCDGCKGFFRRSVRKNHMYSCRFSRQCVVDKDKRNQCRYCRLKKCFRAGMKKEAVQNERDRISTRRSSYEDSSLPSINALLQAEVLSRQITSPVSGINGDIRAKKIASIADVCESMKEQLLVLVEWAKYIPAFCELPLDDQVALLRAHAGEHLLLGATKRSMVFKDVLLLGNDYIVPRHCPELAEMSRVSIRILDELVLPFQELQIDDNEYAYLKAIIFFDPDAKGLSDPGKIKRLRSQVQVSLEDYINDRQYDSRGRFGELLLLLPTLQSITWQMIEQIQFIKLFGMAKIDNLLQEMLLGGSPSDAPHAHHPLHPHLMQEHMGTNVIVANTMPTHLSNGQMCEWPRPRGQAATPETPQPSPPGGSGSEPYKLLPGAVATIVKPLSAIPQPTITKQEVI
E coli growth = inhibitors of Escherichia coli growth | OD600, 23 h; active compounds read low | actives 0.21% (n = 330,000) | AID 1053175 | OD600 absorbance (test concentration not listed);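 active = OD600 absorbance below the run mean of sample wells minus 3.6 SD, in any replicate, cut at about 0.56 in these data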;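 also: stock transfer was 300 nL into about 60 µL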
Ecoli rRNA inh = inhibitors of bacterial rRNA selective over humanized ribosomes. E. coli WT GFP vs humanized-ribosome RFP mutants, fluorescence, 24 h; active compounds read low; DMSO median 0, no signal -100. GFP signal change (wild-type ribosome), % (test concentration not listed). actives 1.6% (n = 350,000);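 active = significant combined selectivity score with lowered wild-type GFP, culture density cut under 30%, mutant RFP and density less affected; inactive = any of these conditions unmet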; also: one replicate is shown; some compounds called inactive have numbers as strong as hits
FGF22 binding = FGF22 (human) thermal shift binding; recombinant FGF22 thermal shift, SYPRO orange fluorescence; percent of sucrose octasulfate shift, DMSO zero; actives 1.5% (n = 340,000); calls only at 9.99 µM; Q9HCT0;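 active = melting point raised past a set limit in the mean and every replicate; inconclusive = no clear call; three in four hits are not shown here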
Ecoli rRNA inh OD600 = further read-out of Ecoli rRNA inh, marked with its call; OD600 change, %; measured here: OD600 growth;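 optical density of the mix in the first replicate; 0 = DMSO median and -100 = no signal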
Ecoli rRNA inh RFP = second read-out of Ecoli rRNA inh, no call of its own (marks repeat the call); RFP signal change, %; measured here: RFP humanized mutant strains;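 first replicate; 0 = DMSO median and -100 = no signal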
Starred values were filed as active, the others as inactive; i = inactive; ? = inconclusive; . = no result given. An excerpt. The share of hits here may be higher or lower than overall.

SMILES	UCH37 DUB inh	B2AR ag	ALR inh	HNF4A DNA FP	E coli growth	Ecoli rRNA inh	Ecoli rRNA inh OD600	Ecoli rRNA inh RFP	FGF22 binding
Cc1ccc(C(=O)Oc2cc(N)n(S(=O)(=O)c3ccc(C)cc3)n2)cc1	3.2	13	.	-3.5	0.74	12	12	0.2	i
N#Cc1c(-c2ccccc2)ccn(Cc2ccccc2Cl)c1=O	.	0	-10	-0.3	.	.	.	.	.
COc1ccc(NS(=O)(=O)c2cc(OC)ccc2NC(=O)c2cc(C)oc2C)cc1	1.0	-4	-7	-1.4	0.68	.	.	.	.
O=C(Nc1ccc(Cl)cc1)Nc1nnc(Cc2ccc([N+](=O)[O-])cc2)s1	1.3	-5	-11	-6.0	0.72	-5	1	0.9	i
COc1ccc(NS(=O)(=O)c2cccc(C(=O)NCc3ccccc3CN3CCOCC3)c2)cc1	4.9	6	.	4.9	0.7	-25	-51	-9.3	i
CCn1ncc(Br)c1C(=O)Nc1cccc(C(C)=O)c1	2.2	1	-12	1.5	0.67	-1	-4	0.7	i
CCN1C(=O)[C@H]2[C@H]3CN=C(SCc4ccc(C)cc4)N3[C@@](CC)(C(=O)OC)[C@H]2C1=O	2.7	1	.	0.8	0.66	5	4	-1.5	i
O=C(CN1C(=O)/C(=C/c2cccc(Cl)c2)SC1=S)NC1C=CS(=O)(=O)C1 (configuration not stated)	6.7	7	6	-1.7	0.67	5	11	2.9	i
COc1cccc(CNC(=O)c2ccc3nc[nH]c3c2)c1	2.5	7	49	-3.7	0.63	.	.	.	.
Cc1cc2oc3cc(NCCC4CCCN4C)ccc3c(=O)c2cc1C (configuration not stated)	-478	8	91*	0.6	0.67	-1	7	29	i
CCCNC(=O)CSc1ccc(S(=O)(=O)N2CCCC2)cn1	4.3	1	-3	1.2	0.68	6	-3	-1.8	i
Cc1cc(Cl)nc(-n2nc(C)cc2C)n1	3.0	1	.	0.6	0.68	-32*	-25*	-6.2*	.
O=C(Cn1c(=O)cnc2ccccc21)NNC(=O)c1ccccc1Cl	-0.3	-11	1	-2.7	0.69	8	4	0.4	i
CCCOC(=O)COC(=O)c1ccccc1NC(=O)c1ccccc1	-1.5	0	2	-3.2	0.66	.	.	.	.
CC(C)(O)[C@H](O)COc1c2ccoc2cc2oc(=O)ccc12	1.4	-4	-2	-0.6	.	2	-4	1.1	i
O=C1CNC(=O)N1Cc1ccc(Br)cc1	-4.2	.	0	.	0.77	.	.	.	.
COC(=O)C1OC(OC2CC[C@]3(C)C(CC[C@@]4(C)[C@@H]3CC=C3[C@@H]5CC(C)(C)CC[C@]5(C(=O)OC5OC(CO)C(O)C(O)C5O)CC[C@]34C)C2(C)C)C(O)C(O)C1O[C@H]1OCC(O)C(O)C1O (some centres not stated)	8.7	-13	1	-1.4	0.71	.	.	.	.
CCCNC(=O)C1CCCN(S(=O)(=O)c2ccc3c(c2)CC(C)N3C(=O)C2CC2)C1 (configuration not stated)	5.9	-22	-7	0.0	0.78	0	-9	0.0	i
O=C(NCc1ccco1)/C(=C/c1ccc(Br)cc1)NC(=O)c1ccco1	-3.9	-1	14	2.3	0.67	6	9	-2.1	i
COc1ccc2nccnc2c1[N+](=O)[O-]	8.0	-5	1	6.5	0.67	0	18	-2.6	i
CCN(CC)S(=O)(=O)c1cccc(C(=O)Nc2ccc3c(c2)OCO3)c1	4.0	6	-1	1.0	0.69	-15	-9	-2.7	i
COc1ccc(NC(=O)CCn2nnc(-c3ccc(C)cc3)n2)cc1OC	-1.5	11	-20	1.7	0.72	.	.	.	.
O=C(/C=C\Nc1ccc(Br)cc1)c1cccnc1	-0.6	-6	-2	3.5	0.65	.	.	.	.
CC(=O)Nc1ccc(/C=C(\C#N)S(=O)(=O)c2ccc(C)cc2)cc1	-2.1	3	-1	2.1	0.65	7	3	6.3	i
O=C1c2ccccc2C(=O)N1CCc1csc(-c2ccccc2)n1	2.8	-8	-17	3.6	0.69	-13	-19	1.0	.
COc1ccccc1CCNC(=O)Cn1ccc2cc(S(=O)(=O)N3CCC(C)CC3)ccc21	-1.0	7	0	-1.4	0.7	5	-4	0.8	i
CCOc1ccc(C(=O)NCCC(=O)N2CCC3(CC2)NCCc2[nH]cnc23)cc1OCC	3.2	-4	-5	-3.4	0.69	5	10	-1.8	i
COc1cc(OC)cc(OCC(O)Cn2cnc(-c3ccccc3)c2)c1 (configuration not stated)	1.0	10	-10	-4.9	0.59	-21	-20	23	i
CS(=O)(=O)N1CCC(Oc2ccccc2C(=O)N2CCNC(=O)C2)CC1	-1.9	-8	4	-0.7	0.68	11	10	10	i
CC(=O)C(Cc1ccccc1)NC(=O)COC(=O)c1ccc(-n2cnnn2)cc1 (configuration not stated)	-1.4	5	-1	4.5	0.72	-1	-3	0.7	i
COC(=O)c1ccccc1N1C(=O)C2C(C1=O)C1C=CC2C12CC2 (configuration not stated)	-0.5	16	-14	-3.1	0.65	.	.	.	.
COc1ccc(Cc2c(C3CCCCC3)nc3c(Cl)cc(C(F)(F)F)cn23)c(C)c1	.	.	.	3.6	.	11	10	4.0	i
CCOc1ccc(C2C(C#N)=C(N)Oc3cc(C)n(CCN(C)C)c(=O)c32)cc1OCC (configuration not stated)	1.7	1	.	-6.8	0.66	.	.	.	.
CC1(C)Cc2c(cnn2-c2ccccc2)C(NC(=O)CCCN2CCCCC2=O)C1 (configuration not stated)	-1.3	-4	9	-2.8	0.7	4	12	0.9	i
COc1ccc(C(=O)N[C@H](C(=O)N2CCN(c3ccccc3F)CC2)C(C)C)cc1	0.0	-6	4	0.9	0.73	14	-2	-0.9	i
COc1ccc(CN(C)C(=O)C2CC(=O)N(c3ccc4c(c3)OCCO4)C2)cc1 (configuration not stated)	.	.	.	-1.5	.	6	9	-2.8	i
CCN(CC)CCOc1ccccc1C(C)=O	1.1	-1	-5	0.7	0.68	15	22	2.7	i
CC1CCN(C(=O)Cn2c3ccc(F)cc3c3nc4n(c(=O)c32)CCCS4)CC1	-66	-9	-4	13	0.72	.	.	.	.
Cc1ccc(C(=O)N2CC(=O)Nc3ccc(F)cc3C2c2ccccc2)cc1[N+](=O)[O-] (configuration not stated)	-0.3	-6	-2	-2.5	0.68	-7	-2	-4.9	i
COc1cc(OC)cc(C(=O)NC(C(=O)Nc2ccc3c(c2)CCC3)C(C)C)c1 (configuration not stated)	3.2	5	.	2.0	0.71	.	.	.	i
Nc1cc(Oc2ccc(Cl)cc2Cl)nc(N)n1	1.3	-6	-2	-4.0	0.56	-47	-67	-12	i
CCN1CCN(c2nc3c(C)cccn3c(=O)c2/C=C(\C#N)C(=O)NC)CC1	-36	-4	-12	-3.8	0.63	0	18	2.2	i
CC(C(N)=O)N1C(=O)c2cccc3cccc1c23 (configuration not stated)	-20	4	-19	1.0	0.72	7	3	-8.6	i
CNC(=S)N(CCc1c(C)[nH]c2ccccc12)Cc1ccco1	5.2	-5	?	-11	0.64	-20*	-11*	4.6*	i
O=C(c1ccc([N+](=O)[O-])cc1)N1CCSC1c1ccccc1Cl (configuration not stated)	1.0	0	-54	-2.8	0.66	-10	-14	-3.0	i
COc1ccc(CN(C)C(=O)CCNS(=O)(=O)c2ccccc2)c(OC)c1	.	.	.	-2.2	.	-1	6	3.1	i
O=C(CSc1nnc(COc2cccc3cccnc23)o1)N1CCN(C(=O)c2ccco2)CC1	-4.7	2	-18	-1.4	0.75	.	.	.	.
CCCCCn1c(SCC#N)nc2cc(C(=O)NCC3CCCO3)ccc2c1=O (configuration not stated)	5.3	-4	-19	4.5	0.67	.	.	.	.
CCc1ccc(C(=O)NNC(=O)CCc2nc3ccccc3c(=O)[nH]2)cc1	-2.6	2	.	4.4	0.69	-1	5	-1.4	i
COc1cccc(OCc2cc(C(=O)N3CCN(c4ccccc4OC)CC3)no2)c1	3.5	7	6	1.5	0.71	9	-14	7.9	i

Remaining list, next part:
SMILES	UCH37 DUB inh	B2AR ag	ALR inh	HNF4A DNA FP	E coli growth	Ecoli rRNA inh	Ecoli rRNA inh OD600	Ecoli rRNA inh RFP	FGF22 binding
Cc1ccc(SCC(=O)OCC(=O)N(CCC#N)c2ccccc2)cc1	1.7	9	3	2.4	0.68	2	-1	6.8	i
O=C(NC(=S)NNC(=O)c1ccccc1O)c1cccc([N+](=O)[O-])c1	8.4	3	.	0.1	0.62	-20	-32	-10	i
CCOC(=O)C1=C(C)NC(=O)NC1c1cc(Br)c(O)c(OC)c1 (configuration not stated)	3.4	5	38	1.6	0.7	.	.	.	.
O=C1NC[C@@H](CCCCN2C[C@H](Cc3ccc(O)cc3)N(Cc3ccccc3)C(=O)C2=O)N(Cc2ccccc2)C1=O	.	.	.	3.3	.	3	1	2.2	i
O=C(Cc1ccccc1)NCCS(=O)c1ccc(Cl)cc1 (configuration not stated)	2.1	9	-8	-4.0	0.76	.	.	.	.
O=C(NCc1ccc2c(c1)OCO2)c1nnc(Cc2ccc(F)cc2)o1	5.3	-109	.	-4.9	0.76	2	-4	-4.8	i
CC(=O)c1oc2ccccc2c1NC(=O)CCCN1C(=O)c2ccccc2C1=O	1.0	68*	.	1.7	0.78	6	12	-3.8	i
COC(=O)c1c(-c2ccc(N(C)C)cc2)oc2c1C(OC)CCC2 (configuration not stated)	.	.	.	5.2	.	4	-10	-8.7	i
CCn1c(O)c(/C=N/N=C/c2ccccc2)c2ccc(C3=NNC(=O)CC3)cc21	.	-25	37	-10	.	.	.	.	.
O=C(NCCNC(=O)c1cc(OCC(F)(F)F)ccc1OCC(F)(F)F)Nc1ccc(Cl)cc1	0.7	.	-18	.	0.58	.	.	.	.

Four records drawn at random from the list so far, as already listed:
SMILES	UCH37 DUB inh	B2AR ag	ALR inh	HNF4A DNA FP	E coli growth	Ecoli rRNA inh	Ecoli rRNA inh OD600	Ecoli rRNA inh RFP	FGF22 binding
CC(=O)Nc1ccc(/C=C(\C#N)S(=O)(=O)c2ccc(C)cc2)cc1	-2.1	3	-1	2.1	0.65	7	3	6.3	i
COc1cccc(CNC(=O)c2ccc3nc[nH]c3c2)c1	2.5	7	49	-3.7	0.63	.	.	.	.
CCCOC(=O)COC(=O)c1ccccc1NC(=O)c1ccccc1	-1.5	0	2	-3.2	0.66	.	.	.	.
CCOc1ccc(C(=O)NCCC(=O)N2CCC3(CC2)NCCc2[nH]cnc23)cc1OCC	3.2	-4	-5	-3.4	0.69	5	10	-1.8	i

New compounds follow:
SMILES	UCH37 DUB inh	B2AR ag	ALR inh	HNF4A DNA FP	E coli growth	Ecoli rRNA inh	Ecoli rRNA inh OD600	Ecoli rRNA inh RFP	FGF22 binding
CCOc1ccc(NC(=O)C2=NN(c3ccccc3)C(=O)CC2)cc1S(=O)(=O)N1CCCCC1	3.8	1	-28	-0.2	0.68	7	11	0.4	i
CCOC(=O)c1cnn2c(N)c(C#N)nnc12	7.0	4	-6	4.9	0.69	.	.	.	.
COc1ccccc1C(=O)NCCC(=O)NN1C(=O)NC2(CCCCC2)C1=O	2.0	-6	-1	-2.4	0.7	7	9	0.1	i
O=C(NCCCc1nc2ccccc2[nH]1)c1cccs1	1.3	-7	-3	-4.0	0.71	8	5	-6.0	i
O=C(NCCCN1CCN(c2ccccc2F)CC1)C1CCN(S(=O)(=O)c2cccs2)CC1	-0.4	-5	0	1.7	0.64	.	.	.	.
Cc1ccc(S(=O)(=O)N2CCN(C(=O)n3ccnc3)CC2)cc1	1.3	-1	-2	-2.2	0.67	-2	3	-1.3	i
O=c1c2c(O)cc(O)cc2oc2ccc(O)c(O[C@@H]3O[C@H](CO)[C@@H](O)[C@H](O)[C@H]3O[C@H]3O[C@H](CO)[C@@H](O)[C@H](O)[C@H]3O)c12	.	2	.	1.7	.	.	.	.	i
Cc1csc2nc(O)c(C(=O)NCC3CCCO3)c(=O)n12 (configuration not stated)	5.0	-3	-6	-3.1	0.66	4	2	-1.7	i

Screening results deposited in PubChem BioAssay by several laboratories.
